Anaer choline gr: growth inhibitors of anaerobic choline-fed gram-negatives, minimal medium, absorbance; Gram-negative bacterium anaerobic choline minimal medium; hits give low values; many inactives read as strong as hits in the columns shown; calls only; hit rate 0.2% among 55,000; AID 1963822, 2024;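 active = growth z-score on choline under -2 at 7 or 20 h with little or no fall on glycerol, limits in tiers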;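 note: stock transfer was 300 nL into about 50 µL; the organism is E. coli; final concentration not given here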
Anaer choline gr early: further read-out of Anaer choline gr, marked with its call; z-score; measured here: choline growth z-score, timepoint 1;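 score of optical density at 7 h as mean of two plates; lower means less growth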
* marks the source's active call; other numbers are inactive results; i = inactive; & = joins results of further samples. Not all compounds are listed; the hit share may differ from the screen's.

SMILES,Anaer choline gr,Anaer choline gr early
Cc1nn(-c2ccccc2)c2c1C(C(=O)c1cc3ccccc3o1)CC(=O)N2 (stereo not given),i,0.41
CCN1CCN(S(=O)(=O)c2c(C)[nH]c(C)c2-c2nnc(C)o2)CC1,i,-0.59
Cc1ccc(CNC2=NCCNC23CCN(S(=O)(=O)c2ccc(Cl)cc2)CC3)cc1,i,-0.2
Cc1noc(C)c1S(=O)(=O)N1CCC(c2c(C)n(Cc3ccc(F)cc3)c3ccccc23)CC1,i,0.7
COc1ccc(S(=O)(=O)NC2CCN(C(=O)c3cc4cc(Cl)ccc4[nH]3)CC2)cc1,i,-0.57
Cc1cccc(C)c1OCC(=O)Nc1noc(-c2ccccc2)n1,i,-1.4
CCS(=O)(=O)N1CCc2cc(C(=O)N3CCN(c4ccccc4OC)CC3)ccc21,i,-0.17
COc1ccc(NC(=O)Nc2nnc(SCC(=O)NC3CCCC3)s2)cc1,i,0.27
CCn1nccc1C1CCCN1S(=O)(=O)c1ccc(Br)cc1 (stereo not given),i,-0.28
Cc1cc(-n2c(C)nc3ccccc3c2=O)ccc1NC(=O)CCC1CCCC1,i,0.07
Cc1cccc(Nc2nnc(C)c(=O)[nH]2)c1,i,-0.11
CCc1ccc(S(=O)(=O)N2CCCC2c2cc(C)no2)cc1 (stereo not given),i,0.2
COc1ccc(C2=C(N3CCC(C(N)=O)(N4CCCCC4)CC3)c3ccccc3C2=O)cc1,i,0
CCOCCCNc1nc(C)nc2onc(CC)c12,i,0
Cc1ccc2c(=O)c(-c3nc(-c4ccccc4C)no3)cn(CC(=O)Nc3ccc(C(N)=O)cc3)c2n1,i,-0.52
COCCN1C(=O)c2[nH]nc(-c3c(C)cc(C)cc3O)c2C1c1ccc(OC)c(OC)c1 (stereo not given),i,-0.52
Cc1ccccc1CNC(=O)CCCN1CCSc2ccccc21,i,0.67
CCCCC(=O)Nc1ccc(SCc2cc(=O)n3oc(C)cc3n2)cc1,i,-0.62
C=CCSc1nn(CC(=O)OCC)c2nc3c(c(=O)n12)C(C)(C)Cc1ccccc1-3,i,0.74
CC1CCCCN1CCNC(=O)CC1CCN(S(=O)(=O)c2cccs2)CC1 (stereo not given),i,-0.24
COC(=O)c1cc2ccsc2n1CC(=O)Nc1cc(F)ccc1F,i,1.3
COc1ccc(S(=O)(=O)Cc2nc(-c3ccc4c(c3)OCO4)no2)cc1OC,i,-0.69
CCC(C(=O)NCCCN1CCN(C)CC1)N1C(=O)CCCc2ccccc21 (stereo not given),i,-1.1
Cc1cc(C)cc(Nc2nc(C)nc3onc(C)c23)c1,i,1.2
O=C(CN1C(=O)C2CCCCN2c2ccc(S(=O)(=O)N3CCCCC3)cc21)NC1CCCCC1 (stereo not given),i,0.17
CCCCSc1nn2c(=O)c(C)nnc2s1,i,-0.65
Cc1nc(-c2cc(S(=O)(=O)NCCCN3CCC(C)CC3)c(C)s2)sc1C,i,-0.86
Cc1ccc(C(C)C)c(OCc2nc3ccccc3n2C(C)C)c1,i,0.63
CCSc1nccn2nc(-c3cccc(Cl)c3)cc12,i,-0.62
CCOc1ccc2oc(-c3ccccc3)c(C(=O)Nc3cc(OC)c(OC)cc3C(=O)OC)c2c1,i,0.18
COc1ccc(C2CC(=O)C3=C(C2)Nc2onc(C)c2C3c2ccc(O)c(O)c2)cc1OC (stereo not given),i,-0.58
Cc1ccc(-n2nc(C(=O)Nc3nc(C)cs3)c3ncn(C)c(=O)c32)cc1,i,2
CCOC(=O)c1c(C)oc2cc(Br)c(O)cc12,i,0.02
CCOc1ccnc2c1c(=O)n(CC(=O)N1CCc3ccccc31)c(=O)n2C,i,-0.54
CCOC(=O)c1ccc(NC(=O)Cn2c(=O)n(-c3ccc(C)cc3)c(=O)c3c2cnn3C)cc1,i,-0.92
CN1c2cc(Cl)ccc2-c2nc(SCC(=O)Nc3cc(F)ccc3F)ncc2S1(=O)=O,i,-0.43
COc1ccc2cc3c(N)nn(C(=O)c4ccncc4)c3nc2c1,i,-0.53
COc1cccc(Cn2c(=O)n3nc(CCn4nc(C)cc4C)nc3c3ccccc32)c1,i,-0.65
Cc1ccc(CNS(=O)(=O)c2cc(-c3nc(C)cs3)sc2C)cc1,i,0.18
CC(C)n1c(=O)oc2cc(NS(C)(=O)=O)ccc21,i,-0.95
Cc1ccc(NC(=O)N2Cc3cccn3-c3ccccc32)cc1Cl,i,1.7
CNC(=O)CCC(=O)N1c2ccccc2NC2=C(C(=O)CC(C)(C)C2)C1c1ccco1 (stereo not given),i,0.26
CCc1ccc(NC(=O)NCCC2CCN(S(=O)(=O)c3ccc(C)cc3)CC2)cc1,i,0.58
Cc1ccc(-c2cc(Nc3c(C)n(C)n(-c4ccccc4)c3=O)nc(C)n2)cc1,i,-2.1
CCCc1cc(C2CCCN2S(=O)(=O)c2c(C)noc2C)no1 (stereo not given),i,-1.7
COc1ccc(Cl)cc1S(=O)(=O)Nc1c(-n2cnnc2)nn(C)c1C,i,-1.6
COc1c(C)cnc2c1c(=O)n(CC(=O)N1CCC(C)CC1)c(=O)n2C,i,-0.26
Cc1ccc(CNC(=O)CSc2nc3cc(-c4ccccc4)sc3c(=O)n2C)cc1,i,-0.73
Cc1nc(-c2ccc(N3CCN(C(=O)Nc4ccc(C)c(Cl)c4)CC3)cc2)no1,i,0
COC(=O)CSc1nnc(-c2sc3ncccc3c2N)n1C1CC1,i,-0.64
COc1ccc(NC(=O)c2nc3nc(-c4ccc(F)cc4)cc(C(F)(F)F)n3n2)cc1OC,i,-0.32
CC(C)CC(=O)Oc1cccc(-n2cnnn2)c1,i,-1.4
Cc1cc2c(cc1S(=O)(=O)N1CCCC1C(=O)NCc1ccc(Cl)cc1)OCC(=O)N2 (stereo not given),i,0.3
Cc1sc(C)c(S(=O)(=O)Nc2cccc(F)c2)c1-c1cc(C(F)(F)F)on1,i,-3
Cc1ccc(CNS(=O)(=O)c2ccc3c(c2)C(=O)NC3)cc1,i,-0.95
CCc1cccc(-n2c(=O)c3cccnc3n2CC(=O)NC2CCCC2)c1,i,-0.4
COc1ccc(OCC(=O)N2CCC3(CC2)Nc2cc(F)ccc2-n2cccc23)cc1,i,-0.11
CCN(CC)S(=O)(=O)c1ccc2nc(NCc3cc(F)cc(F)c3)cnc2c1,i,0.41
Cc1csc(NC(=O)c2cc3c(=O)n(C)c(=O)n(C)c3s2)n1,i,-1.3
Cc1nc(Cl)c2c(C)c(C)n(-c3ccccc3)c2n1,i,-1.2

A second format for 2 compounds above.
Value order: Anaer choline gr | Anaer choline gr early
> CCOC(=O)c1c(C)oc2cc(Br)c(O)cc12
 : i | 0.02
> Cc1cc2c(cc1S(=O)(=O)N1CCCC1C(=O)NCc1ccc(Cl)cc1)OCC(=O)N2 (stereo not given)
 : i | 0.3

Further compounds:
SMILES,Anaer choline gr,Anaer choline gr early
O=C1CCCN2N=C(SCC(=O)Nc3ccc(F)cc3F)SC2=N1,i,0.4
CCc1c(C)nc(N2CCN(Cc3ccc4c(c3)OCO4)CC2)[nH]c1=O,i,-0.27
Cc1nn(CC(=O)N2CCCC2)c(C)c1S(=O)(=O)N1CCC(C(=O)NC2CCCC2)CC1,i,-0.63
Cc1ccc(N2C(=O)CN(CCc3ccccc3)[C@H]3CS(=O)(=O)C[C@H]32)cc1,i,-1.8
O=C(NCc1ccc(Br)cc1)c1ccc(-c2cccnc2)cc1,i,0.18
COC(=O)Cn1c(=O)oc2cc(S(=O)(=O)N3CCC(N4CCCCC4)CC3)ccc21,i,-0.87
O=C(Nc1ccccc1F)c1ccc(-n2nc(OCc3ccc(Cl)cc3)ccc2=O)cc1,i,0.36
O=C(Nc1cccc(F)c1)N1CCN(Cc2nc3cccnc3n2-c2ccc(F)cc2)CC1,i,1
CCn1cc(CN2CCC(C(=O)NCCN3CCOCC3)CC2)c2ccccc21,i,0.18
O=C(c1ccc(Br)cc1)N1CCN(Cc2noc3ccccc23)CC1,i,-0.72
O=C(NCc1ccccc1)c1cccc(-c2cc(NC3CCCCC3)ncn2)c1,i,-0.14
CC1CCN(S(=O)(=O)c2ccc(-c3cc(C(F)(F)F)on3)o2)CC1,i,0.9
c1ccc(-c2cc(Nc3ccc(N4CCCC4)cc3)ncn2)cc1,i,0.01
CCCn1nnc(NCc2ccc(-c3ccc(Br)cc3Cl)o2)n1,i,0.44
CCC(=O)Nc1ccc(S(=O)(=O)N(C)CCc2noc(C3CCCCC3)n2)cc1,i,0.3
O=C(Nc1ccc(F)cc1)N1CCC(n2cnc3ccc(F)cc3c2=O)CC1,i,1.2
O=C(Cc1csc(NC(=O)Nc2ccccc2)n1)Nc1cccc(Br)c1,i,-0.1
CC(c1nnc(SCC(=O)N2CCc3cc(Br)ccc32)n1C)N1C(=O)COc2ccccc21 (stereo not given),i,-0.04
Cc1cc(C)cc(NS(=O)(=O)c2cc(-c3nc(C)cs3)sc2C)c1,i,-0.69
CC1(C)CC(=O)C2=C(C1)Nc1ccccc1N(CC(=O)NC1CCCCC1)C2c1ccco1 (stereo not given),i,-0.28
O=C(C1CCN(c2nn3c(=O)c4c(nc3s2)CCCC4)CC1)N1CCN(c2ncccn2)CC1,i,0.12
COc1cc(OC)cc(C(=O)Nc2ccc(SCc3cc(=O)n4c(ncn4C(C)C)n3)cc2)c1,i,0.37
Cc1cc(C)cc(NC(=NCc2ccncc2)NC(=O)c2ccc(CN3CCOCC3)cc2)c1,i,-2.1
COc1ccc(C(=O)NC(c2ccccc2)c2ccccc2)c(OC)n1,i,-0.15
CC(C(=O)Nc1ccc(Br)cc1)n1nc(-c2ccc3c(c2)OCCO3)ccc1=O (stereo not given),i,0.38
Cc1nc2sc3ccccc3n2c(=O)c1S(=O)(=O)Nc1ccc(F)cc1,i,-0.46
O=c1oc2cc(S(=O)(=O)NC3CC3)ccc2n1Cc1noc(C2CCC2)n1,i,-0.05
c1ccc(-n2nnnc2SCCNCc2ccc3c(c2)OCCO3)cc1,i,-0.15
CCCCC[C@H](O)/C=C/C=C\C/C=C\C/C=C\CCCC(=O)O,i,0.94
CCOc1ccccc1NC(=O)CN(C)S(=O)(=O)c1cc2c(cc1C)NC(=O)CO2,i,-0.88

Two of these compounds in a different format.
Below each SMILES – Anaer choline gr	Anaer choline gr early
O=C(NCc1ccc(Br)cc1)c1ccc(-c2cccnc2)cc1
    i	0.18
COC(=O)Cn1c(=O)oc2cc(S(=O)(=O)N3CCC(N4CCCCC4)CC3)ccc21
    i	-0.87

Entries from the list above with a CF3 group:
SMILES,Anaer choline gr,Anaer choline gr early
COc1ccc(NC(=O)c2nc3nc(-c4ccc(F)cc4)cc(C(F)(F)F)n3n2)cc1OC,i,-0.32
Cc1sc(C)c(S(=O)(=O)Nc2cccc(F)c2)c1-c1cc(C(F)(F)F)on1,i,-3
CC1CCN(S(=O)(=O)c2ccc(-c3cc(C(F)(F)F)on3)o2)CC1,i,0.9

The list continues.
SMILES,Anaer choline gr,Anaer choline gr early
Cc1ccc2c(c1)sc1nc(C)c(S(=O)(=O)Nc3ccc(F)c(F)c3)c(=O)n12,i,0.45
CCc1nc(-c2cc(S(=O)(=O)N3CCCC(C(=O)Nc4ccc(C)cc4)C3)c(C)s2)no1 (stereo not given),i,0.67
Cc1ccc(OC(=O)c2cn(C)c(=O)c3ccccc23)cc1,i,1.4
COc1cc(-c2noc(-c3ccccc3)n2)ccc1OCC(=O)Nc1ccc(F)cc1,i,-0.45
CCOc1ccc(CCNC(=O)c2nc3ccccc3nc2N2CCCC2)cc1OCC,i,-0.77
COc1ccc(N(C(=O)c2ccc(C)cc2)C2(C(=O)NCc3ccccc3)CCN(C(C)=O)CC2)cc1,i,-0.18
Cc1ccc(-c2onc3ccc(C(=O)N4CCN(c5ccccn5)CC4)cc23)cc1,i,-0.34
CCc1nc2ccc(C(=O)NCCN3CCCCC3C)cc2nc1CC (stereo not given),i,-0.77
CCOc1ccc(S(=O)(=O)N2CCC[C@@H]2C(=O)NCc2csc(C)n2)cc1,i,-1.2
CCN(CC)c1c(C)c(C)nc2ncnn12,i,-0.18
O=C(Nc1ccc2c(c1)OCO2)c1ccc(N2C(=O)CCS2(=O)=O)cc1Cl,i,0.34
CCSc1ncc2c(=O)n(CC(=O)NC3CCCCC3)cnc2n1,i,-1.9
CC(C)NC[C@@H](O)COc1cccc2ccccc12,i,-0.05
O=C(Nc1cccc(Br)c1)c1cc(-c2cccnc2)on1,i,0.55
c1ccc(-c2noc(-c3ccc(N4CCN(c5ccccc5)CC4)nn3)n2)cc1,i,0.62
CC1(C(=O)NC2CCCC2)Cn2c(cc3ccccc32)C(=O)N1C1CCCC1 (stereo not given),i,-0.43
Cc1ccc(N2C(=O)CN(CC(C)C)[C@H]3CS(=O)(=O)C[C@H]32)cc1C,i,-0.25
CC(C)[C@H](NC(=O)OCc1ccccc1)C(=O)N[C@H](C=O)Cc1ccccc1,i,0.46&0.19
CCOC(=O)c1cc2n(n1)CC(C)(C(=O)NC1CCCCC1)N(c1ccc(C)cc1)C2=O (stereo not given),i,-0.87
COc1ccc(NC(=O)C2CCCN2S(=O)(=O)c2ccc3c(c2)NC(=O)CO3)cc1 (stereo not given),i,0.3
COc1ccc(NC(=O)c2nnc(C3CCCN(S(=O)(=O)c4c(C)n[nH]c4C)C3)s2)cc1 (stereo not given),i,-1.7

High-throughput results as filed in PubChem BioAssay.
